NPR1 antag: Natriuretic polypeptide receptor (hNpr1) antagonism - Primary qHTS. HEK293 hNpr1 GloSensor cGMP, ANP-stimulated luminescence. Potency, µM (top dose mostly 46.3 µM), for the others: top-dose activity change, negative = inhibition, actives largely listed as inhibitors. actives 1.6% (n = 76,000); active = well fitted inhibition curve with a large enough effect; inconclusive = small, poorly fitted or top-dose-only effect; inactive = no such curve, though single readings can be large or run the other way;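 also: nearly all actives have a fitted effect of over 60% in size; nearly all hits also lower the signal before the agonist is added; a reference antagonist and vehicle were the controls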
Target sequence (P16066 whole entry, looked up): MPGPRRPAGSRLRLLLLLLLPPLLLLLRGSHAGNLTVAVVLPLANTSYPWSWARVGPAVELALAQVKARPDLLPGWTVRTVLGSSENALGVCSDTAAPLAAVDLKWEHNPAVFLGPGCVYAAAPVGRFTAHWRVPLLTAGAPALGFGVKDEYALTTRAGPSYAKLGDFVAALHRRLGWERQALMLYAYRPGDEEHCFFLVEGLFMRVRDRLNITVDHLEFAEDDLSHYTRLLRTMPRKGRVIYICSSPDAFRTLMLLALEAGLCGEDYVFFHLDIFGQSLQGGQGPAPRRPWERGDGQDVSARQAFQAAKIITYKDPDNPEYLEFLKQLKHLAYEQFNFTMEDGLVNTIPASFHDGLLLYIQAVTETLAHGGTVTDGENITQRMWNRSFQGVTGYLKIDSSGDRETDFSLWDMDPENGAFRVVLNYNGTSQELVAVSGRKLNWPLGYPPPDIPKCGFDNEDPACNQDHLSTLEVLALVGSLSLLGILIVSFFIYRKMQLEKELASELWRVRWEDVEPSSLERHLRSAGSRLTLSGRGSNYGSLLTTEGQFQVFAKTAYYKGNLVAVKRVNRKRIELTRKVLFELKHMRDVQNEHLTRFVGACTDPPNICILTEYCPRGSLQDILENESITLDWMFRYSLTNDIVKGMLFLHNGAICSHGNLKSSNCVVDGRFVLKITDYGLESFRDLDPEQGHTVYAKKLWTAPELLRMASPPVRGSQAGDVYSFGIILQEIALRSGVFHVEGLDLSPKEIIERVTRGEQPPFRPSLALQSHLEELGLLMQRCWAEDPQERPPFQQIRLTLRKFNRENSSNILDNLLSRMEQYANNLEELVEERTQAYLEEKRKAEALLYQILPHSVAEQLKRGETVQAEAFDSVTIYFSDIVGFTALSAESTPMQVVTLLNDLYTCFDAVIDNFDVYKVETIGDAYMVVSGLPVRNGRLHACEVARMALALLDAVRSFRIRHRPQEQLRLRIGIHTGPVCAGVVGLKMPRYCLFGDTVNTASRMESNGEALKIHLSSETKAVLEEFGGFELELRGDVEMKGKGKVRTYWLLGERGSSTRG
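HEK293 cells stably expressing human Npr1 and cGMP GloSensor pGS-40F, loaded 2 h with 2% GloSensor reagent, given compound 30 min at room temperature. Luminescence read before and 20 min after 0.1 nM hNppA.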
An asterisk follows results filed as active; u = inconclusive; [ ] = another dose, or the depositor's remark. % is scaled to controls: 0 for no effect and ±100 for the full control effect; potency is read from the fitted curve at half-maximal effect. This is a subset; the hit share may differ from the screen's.

SMILES	NPR1 antag
Cc1cc(C)n(CCC(=O)N2[C@H]3CC[C@@H]2c2cnc(-c4ccccc4)nc2C3)n1	1%
COc1cccc(CN2CCN3C(=O)N(C)C[C@H]3C2)n1	4%[70.6 µM]
C#C[C@H]1CN2CC[C@H]1C[C@@H]2CNC(=O)CC(C)(C)CC(=O)O	5%[70.6 µM]
CCC(CC)c1cc([C@H]2CN3CC[C@H]2C[C@@H]3CNC(=O)C(C)(C)C)nc(-c2ccncc2)n1	-3%
CC(C)NC(=O)NC[C@H]1C[C@@H]2CCN1C[C@@H]2CN(C)c1ccccc1	5%[70.6 µM]
COCCN1CCC(N2CCN(C(=O)Cc3cccc(F)c3)CC2)C1=O (stereo unspecified)	1%
COc1cc2c(cc1Oc1cccc(N(C)C)c1)NC(=O)C21CCN(C(=O)c2cccnc2)CC1	-19%
CSc1cccc(NC(=O)NC[C@H]2C[C@@H]3CCN2C[C@@H]3CN2CCSCC2)c1	1%[70.6 µM]
O=C1CO[C@H]2CN(CC3CC3)C[C@H]2N1Cc1ccccn1	3%[70.6 µM]
COc1ccccc1-c1cc([C@H]2CN3CC[C@H]2C[C@@H]3CNS(=O)(=O)c2cccs2)n(C)n1	-1%
O=c1c(C2CCCCC2)ccc2n1C[C@H]1C[C@@H]2CN(S(=O)(=O)c2ccccc2)C1	-6%[70.6 µM]
Cc1cccc(CC(=O)N2[C@H]3CC[C@@H]2c2cnc(-c4ccccc4)nc2C3)c1	2%
CN1CCC(N2C[C@@H]3OCC(=O)N[C@@H]3C2)CC1	-7%[70.6 µM]
Cc1noc(C)c1CN1CCCCC1c1cccnc1 (stereo unspecified)	12%
COc1cc2c(cc1-c1ccc(O)c(F)c1)NC(=O)C21CCN(C(C)=O)CC1	-9%[70.6 µM]
Clc1ccc(N2CCN(CC3[C@H]4CNC[C@@H]34)CC2)nc1 (stereo partly specified)	-3%
CC(C)S(=O)(=O)N1CC[C@@H]2COCCN(C)[C@@H]2C1	0%
Cn1nc(-c2ccccc2)cc1[C@H]1CN2CC[C@H]1C[C@@H]2CNS(=O)(=O)c1cccs1	-16%[70.6 µM]
CNc1nc(N2C[C@H]3CN(CCOC)C[C@@]3(C(=O)O)C2)ncc1F	13%
Cc1ccc(CNC(=O)N2[C@H]3CC[C@@H]2c2cncnc2C3)cc1	1%
O=C1NC2(CN(Cc3ccncc3)C2)Oc2ccccc21	12%[70.6 µM]
O=C(Nc1ccccc1)[C@H]1CN2CC[C@H]1C[C@@H]2Cn1cc(COc2ccccc2)nn1	9%[70.6 µM]
CCC(CC)c1cc([C@H]2CN3CC[C@H]2C[C@@H]3COC(=O)Nc2ccccc2)nc(-c2ccncc2)n1	-2%
Cc1nc(N2CC3CC(C2)c2cccc(=O)n2C3)c2c(C)nn(C)c2n1 (stereo unspecified)	5%
COC1CN(c2ccc(C)cc2)C12CCNCC2 (stereo unspecified)	-1%
Additional entries.
SMILES	NPR1 antag
O=C(Nc1ccccc1)[C@H]1CN2CCC1C[C@@H]2Cn1cc(-c2ccccc2)nn1 (stereo partly specified)	1%[70.6 µM]
Cc1nc(-c2ccccc2)cc([C@H]2CN3CC[C@H]2C[C@@H]3CNC(=O)c2ccco2)n1	-2%[70.6 µM]
COCCNC(=O)[C@H]1CN2CCC1C[C@@H]2Cn1cc(CCO)nn1 (stereo partly specified)	0%[70.6 µM]
O=c1ccc(-c2ccccc2)c2n1C[C@H]1C[C@@H]2CN(S(=O)(=O)c2cccs2)C1	3%[70.6 µM]
COc1ccccc1N1CCN(C(=O)[C@H]2CN3CCC2C[C@@H]3Cn2cc(COc3ccccc3)nn2)CC1 (stereo partly specified)	7%
COc1cc2c(cc1OC1CCCC1)NC(=O)C21CCN(c2cc(NC3CC3)ncn2)CC1	-13%
COc1cc2c(cc1OCC1CC1)NC(=O)C21CCN(c2nc(C)cnc2C)CC1	5%[70.6 µM]
C=C[C@H]1CN2CC[C@H]1C[C@@H]2CNS(=O)(=O)c1cccc(C#N)c1	0%[70.6 µM]
O=C(NCc1ccccc1)[C@H]1CN2CCC1C[C@@H]2Cn1cc(CCO)nn1 (stereo partly specified)	0%[70.6 µM]
C=C[C@H]1CN2CC[C@H]1C[C@@H]2CNS(=O)(=O)c1ccccc1	1%[70.6 µM]
Cc1ccc(C(=O)N2[C@H]3CC[C@@H]2c2cnc(-c4ccc(F)cc4)nc2C3)cn1	-24%
C=C[C@H]1CN2CC[C@H]1C[C@@H]2CNC(=O)c1cccnc1SC	0%[70.6 µM]
O=S(=O)(NC[C@H]1C[C@@H]2CCN1C[C@@H]2CN1CCOCC1)c1ccc(Cl)cc1	-2%[70.6 µM]
COc1ccc2c(c1)C1(CCN(C(=O)c3ccccc3Br)C1)C(=O)N2 (stereo unspecified)	0%
COc1ccc(NC(=O)OC[C@H]2C[C@@H]3CCN2C[C@@H]3c2cc(C3CCCC3)nc(-c3ccncc3)n2)cc1	u
CC(=O)N1[C@H]2CC[C@@H]1c1cnc(-c3ccc(F)cc3)nc1C2	3%
COc1ccccc1-c1cc([C@H]2CN3CC[C@H]2C[C@@H]3CNS(=O)(=O)c2ccc(NC(C)=O)cc2)nc(C)n1	2%
COc1cccc(C(=O)N2CCC3(CC2)NCc2ccccc2-n2ccnc23)c1	-14%
Cc1ccc2c(n1)N(C)[C@H](CO)CCN(CCC(C)C)C2	3%[70.6 µM]
CCC(=O)N1[C@H]2CC[C@@H]1c1cnc(-c3ccccc3)nc1C2	8%
Cc1nc(-c2ccccc2)cc([C@H]2CN3CC[C@H]2C[C@@H]3CNC2CCN(C)CC2)n1	-2%[70.6 µM]
COc1cc2c(cc1OCC1CC1)NC(=O)C21CCN(C(=O)c2cccnc2)CC1	3%[70.6 µM]
Cc1cc(C)cc(C(=O)N2CCC3(CC2)c2nccn2-c2ccccc2CN3C)c1	-3%
COc1ccc(S(=O)(=O)NC[C@H]2C[C@@H]3CCN2C[C@@H]3CN2CCN(c3ncccn3)CC2)cc1	2%
N#Cc1ccc(C(=O)N2C[C@@H]3C[C@H](C2)c2c(-c4cncnc4)ccc(=O)n2C3)cc1	3%[70.6 µM]
Remaining list, next part
SMILES	NPR1 antag
Cc1ncc2c(n1)C[C@@H]1CC[C@H]2N1S(=O)(=O)c1ccc(F)cc1	3%
C#C[C@H]1CN2CC[C@H]1C[C@@H]2CNS(=O)(=O)c1cccs1	-2%[70.6 µM]
Cc1ccncc1C(=O)N1[C@H]2CC[C@@H]1c1cnc(-c3ccccc3)nc1C2	-12%
Cn1cc(CN2CCN(C(=O)Cc3ccccc3)CC2)ccc1=O	1%
COCC(=O)N1CCCC(C(=O)N2CCC(C#N)(c3ccccc3)CC2)C1 (stereo unspecified)	0%
COc1cc2c(cc1OCc1ccncc1)NC(=O)C21CCN(c2ccccn2)CC1	-27%[70.6 µM]
CC[C@H]1CN2CC[C@H]1C[C@@H]2CNC(=O)c1ccccc1	2%[70.6 µM]
COCCC(=O)N1CC(COC)C2(CCNCC2)C1 (stereo unspecified)	4%
CN(C)[C@@H]1CN(C(=O)Cc2ccc(F)cc2)C[C@H]1CO	0%
COc1ccccc1-c1ccc(N2CC3CC(C2)c2cccc(=O)n2C3)nn1 (stereo unspecified)	2%
CC(=O)N1C[C@@H]2C[C@H](C1)c1ccc(NC(=O)Nc3ccccc3)c(=O)n1C2	7%[70.6 µM]
CSc1cccc(NC(=O)NC[C@H]2C[C@@H]3CCN2C[C@@H]3CN2CCC(Cc3ccccc3)CC2)c1	3%
CCn1c(C2CCNCC2)nn(C)c1=O	4%
Cc1cccc(C(=O)N2[C@H]3CC[C@@H]2c2cnc(-c4ccccc4)nc2C3)c1	u
CCCS(=O)(=O)NC[C@H]1C[C@@H]2CCN1C[C@@H]2c1cc(C(CC)CC)nc(-c2ccncc2)n1	u
O=C(c1ccccc1)N1C[C@@H]2C[C@H](C1)c1c(-c3cccnc3)ccc(=O)n1C2	-4%[70.6 µM]
C=C[C@H]1CN2CC[C@H]1C[C@@H]2CNCc1ccc(N(C)C)cc1	-3%[70.6 µM]
Cc1nc(-c2ccco2)cc([C@H]2CN3CC[C@H]2C[C@@H]3CNC2CCOCC2)n1	1%[70.6 µM]
COc1ccc(-c2cc([C@H]3CN4CC[C@H]3C[C@@H]4CNC(=O)NC(C)C)n(C)n2)cc1	-8%[70.6 µM]
CCCS(=O)(=O)Nc1ccc(=O)n2c1[C@@H]1C[C@@H](CN(S(=O)(=O)c3ccc(OC)cc3)C1)C2	-2%
CN1CCN(C(=O)Cc2c[nH]c3ncc(-c4ccc(CO)cc4)cc23)CC1	0%[70.6 µM]
COCC1CN(Cc2ccsc2)CC12CCNCC2 (stereo unspecified)	-10%
CCNC(=O)NC[C@H]1C[C@@H]2CCN1C[C@@H]2c1cc(-c2ccc3ccccc3c2)nn1C	2%[70.6 µM]
COc1cc2c(cc1OC1CCCC1)NC(=O)C21CCN(c2ncc(C(C)C)cn2)CC1	-2%[70.6 µM]
Cc1cccc(NC(=O)N2[C@H]3CC[C@@H]2c2cnc(-c4ccccc4)nc2C3)c1	-29%

3 entries already listed, arranged by heavy-atom count, falling.
SMILES	NPR1 antag
Cc1nc(-c2ccco2)cc([C@H]2CN3CC[C@H]2C[C@@H]3CNC2CCOCC2)n1	1%[70.6 µM]
COCC(=O)N1CCCC(C(=O)N2CCC(C#N)(c3ccccc3)CC2)C1 (stereo unspecified)	0%
COCC1CN(Cc2ccsc2)CC12CCNCC2 (stereo unspecified)	-10%

Additional entries follow:
SMILES	NPR1 antag
COc1cc2c(cc1OCC1CC1)NC(=O)C21CCN(c2ncc(F)cn2)CC1	4%[70.6 µM]
COc1cc2c(cc1OCc1ccncc1)NC(=O)C21CCN(Cc2cccnc2)CC1	-1%[70.6 µM]
Cn1nc(C2CCCC2)cc1[C@H]1CN2CC[C@H]1C[C@@H]2CNC(=O)c1cccs1	-6%[70.6 µM]
COc1ccc(-c2ccc(=O)n3c2[C@@H]2C[C@@H](CN(C(=O)NC4CCCCC4)C2)C3)cc1	4%[70.6 µM]
O=C(Nc1ccc2n(c1=O)C[C@H]1C[C@@H]2CN(C(=O)NC2CCCCC2)C1)c1ccco1	2%[70.6 µM]
COc1cc2c(cc1Oc1cccc(N(C)C)c1)NC(=O)C21CCN(CCC(C)C)CC1	u
Nc1cccc(-c2cn(C[C@H]3CC4CCN3C[C@@H]4C(=O)NCc3ccccc3)nn2)c1 (stereo partly specified)	-2%[70.6 µM]
COc1ccc(NC(=O)N2C[C@@H]3C[C@H](C2)c2c(NC(=O)CSC)ccc(=O)n2C3)cc1	5%
O=C1NC2(CCN(Cc3ccccn3)C2)Oc2ccccc21 (stereo unspecified)	0%[70.6 µM]
CCNC(=O)Nc1ccc(OCC(=O)N2CCN(CC(C)C)CC2)nc1	1%
CC1=NOC2(CCN(CCC(C)C)C2)C1 (stereo unspecified)	23%[70.6 µM]
CCC(CC)c1cc([C@H]2CN3CC[C@H]2C[C@@H]3CNC(=O)c2ccco2)nc(-c2ccncc2)n1	-2%
COc1ccc(-c2cnc3[nH]cc(CC(=O)N4CCN(C)CC4)c3c2)cc1OC	5%[70.6 µM]
COc1ccc(CNC[C@H]2C[C@@H]3CCN2C[C@@H]3c2cc(C3CCCCC3)nn2C)cc1	3%[70.6 µM]
COc1ccccc1-c1cc([C@H]2CN3CC[C@H]2C[C@@H]3COC(=O)NC2CCCCC2)nc(C)n1	-2%
CN(C)[C@@H]1CN(C(=O)Cc2ccccc2)C[C@H]1CO	-11%
CN1c2cccnc2CN(C2COC2)CC[C@H]1CO	-4%[70.6 µM]
C#CCN(C)C[C@H]1CN2CC[C@H]1C[C@@H]2CNS(=O)(=O)c1ccccc1	4%[70.6 µM]
CC(=O)Nc1ccc(S(=O)(=O)NC[C@H]2C[C@@H]3CCN2C[C@@H]3c2cc(-c3ccc(F)cc3)nn2C)cc1	0%
COCC(=O)NC[C@H]1C[C@@H]2CCN1C[C@@H]2CN1CCN(c2ccccn2)CC1	-2%[70.6 µM]
CN(C[C@H]1CN2CC[C@H]1C[C@@H]2CNC(=O)c1ccccc1)c1ccccc1	-9%[70.6 µM]
COc1ccc(C(=O)N2[C@H]3CC[C@@H]2c2cnc(-c4ccc(F)cc4)nc2C3)c(OC)c1	u
Cn1nc(C2CCCCC2)cc1[C@H]1CN2CC[C@H]1C[C@@H]2CNC(=O)NCc1ccccc1	1%
COC(=O)N1CCC2(CC1)C(=O)NN=C2c1cccnc1	0%[70.6 µM]
O=C([C@H]1CN2CC[C@H]1C[C@@H]2Cn1cc(CO)nn1)N1CCCC1	1%[70.6 µM]
CSCC(=O)Nc1ccc(=O)n2c1[C@@H]1C[C@@H](CN(C(=O)COc3ccccc3)C1)C2	-1%[70.6 µM]

3 compounds drawn at random from those above:
SMILES	NPR1 antag
COc1cc2c(cc1OCc1ccncc1)NC(=O)C21CCN(Cc2cccnc2)CC1	-1%[70.6 µM]
COc1cc2c(cc1OCC1CC1)NC(=O)C21CCN(c2ncc(F)cn2)CC1	4%[70.6 µM]
COc1ccc(CNC[C@H]2C[C@@H]3CCN2C[C@@H]3c2cc(C3CCCCC3)nn2C)cc1	3%[70.6 µM]

Rewritten with bars between the fields: part of the list above.
SMILES | NPR1 antag
COC(=O)N1CCC2(CC1)C(=O)NN=C2c1cccnc1 | 0%[70.6 µM]
CSCC(=O)Nc1ccc(=O)n2c1[C@@H]1C[C@@H](CN(C(=O)COc3ccccc3)C1)C2 | -1%[70.6 µM]
O=C1NC2(CCN(Cc3ccccn3)C2)Oc2ccccc21 (stereo unspecified) | 0%[70.6 µM]
Cn1nc(C2CCCC2)cc1[C@H]1CN2CC[C@H]1C[C@@H]2CNC(=O)c1cccs1 | -6%[70.6 µM]
CN(C[C@H]1CN2CC[C@H]1C[C@@H]2CNC(=O)c1ccccc1)c1ccccc1 | -9%[70.6 µM]
O=C([C@H]1CN2CC[C@H]1C[C@@H]2Cn1cc(CO)nn1)N1CCCC1 | 1%[70.6 µM]

Screens (PubChem)
